S aureus helic: S. aureus DNA helicase inhibition; purified S. aureus helicase, fluorescence unwinding assay; about half of the hits fall short of the stated cut; inhibition, %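 (tested at about 80 µM)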; 0.05% of 120,000 active;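 active = both duplicates at 50% or more, or one of them with a favoured structure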;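 note: 0% = mean of negative control wells and 100% = mean of positive control wells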
MgrA-DNA mod: alters Staphylococcus aureus MgrA binding to DNA; 0.13% of 84,000 active; inhibition, %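 (about 10 µg/mL by stock and volumes)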; fluorescence polarization; AID 602314;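 active = above 50% in either of two replicates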;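 note: 0% = protein plus DNA without compound and 100% = DNA alone without protein; higher means less MgrA bound to DNA so lower polarization; one replicate is shown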
* = called active by the depositor; . = not tested or not shown; & = joins results of further samples. The list is partial; the hit share may differ from the screen's.

Values run as follows: MgrA-DNA mod | S aureus helic
Cc1[nH]n(-c2ccccc2)c(=O)c1N=O
  . | 0
O=C(COc1nnc2c(n1)Nc1ccccc1S2)N1CCCc2ccccc21
  . | 11
O=C1C2ON(c3ccccc3)C(/C=C/c3ccccc3)C2C(=O)N1c1ccc(Br)cc1 (stereo not drawn)
  -1.4 | 5
COCC(=O)n1nc(-c2ccccc2)nc1NCc1ccccc1
  -0.3 | 7
O=C1CC(O)(C(F)F)Oc2ccccc21 (stereo not drawn)
  . | 23
COC(=O)c1cccc(NC(=O)c2cnccn2)c1
  -4.0 | 17
Cc1cc(C)nc(NC(=O)C(C)N2C(=O)c3ccccc3S2(=O)=O)n1 (stereo not drawn)
  . | 3
Cc1ccc2nsnc2c1NC(=O)CC12CC3CC(CC(C3)C1)C2
  -1.8 | 3
O=C(Nc1ccc2oc(-c3ccc(Cl)cc3Cl)nc2c1)c1ccc2c(c1)OCO2
  -0.2 | 18
CCOc1ccc(N2C(=O)c3ccccc3C2=O)cc1
  -2.7 | .
O=C(NCCN1CCCCCC1)c1cnn(-c2ccccc2)c1-n1cccc1
  . | -9
NC(=O)C1=C(N=C2CCCCC2)CCCC1
  -0.7 | .
CCOC(=O)c1c(C)[nH]c(C)c1S(=O)(=O)N(C)CC(=O)N(C)c1ccc(C)c(C)c1
  . | -1
CC(C)NC(=O)c1cc(Cl)cc(Cl)c1
  -2.8 | .
O=C(Oc1cc(Cl)cc(Cl)c1)c1ccno1
  0.0 | .
c1ccc(OCCn2c(-c3ccco3)nc3ccccc32)cc1
  . | -6
CCN(CC)C(=S)Nc1cc(C(=O)OC)ccc1C(=O)OC
  0.4 | 9
COc1ccc(CC(=O)O)cc1OC
  -3.3 | 8
COc1ccc(C2Nc3ccccc3C(=O)N2NS(C)(=O)=O)cc1OC (stereo not drawn)
  . | 22
C1=CCC(CN2CCN(Cc3ccccc3)CC2)CC1 (stereo not drawn)
  -1.1 | -2
CCOC(=O)c1cnc(SCC(=O)c2ccc(Cl)c(C)c2)nc1N
  -2.5 | .
Cn1ncc(C(=O)O/N=C(\N)c2ccccc2)c1-n1cccc1
  . | -14
C=CCNc1ccccc1C(=O)NCC(=O)OCC
  -1.7 | .
COc1ccc(Cl)cc1NC(=O)CSC1=NN2CCCC(=O)N=C2S1
  . | -26
CC1CCCN(c2nc3nonc3nc2Nc2cccc(Cl)c2)C1 (stereo not drawn)
  -1.1 | 19
CCOC(=O)Cc1csc(SCC(=O)c2ccc3c(c2)OCCO3)n1
  . | -2
CC(C)(C)NC(=O)Cn1c(=O)oc2ccc(Cl)cc21
  . | 6
O=C(CSc1nnc(CN2CCCC2)n1Cc1ccccc1)Nc1ccccc1
  . | 20
Cn1c(CCNC(=O)c2cnc(N3CCOCC3)nc2)nc2ccccc21
  . | 4
CC(CC(=O)O)S(=O)(=O)c1ccc(Cl)cc1 (stereo not drawn)
  -1.1 | .
CSc1cccc(NC2=CC(=O)CC(C)(C)C2)c1
  . | 31
CCOc1ccc(C(=O)N=c2sc3cc(Cl)ccc3n2C)cc1
  . | -10
O=S(=O)(c1ccccc1)N1CCC(Cc2ccccc2)CC1
  0.3 | 2
O=C(O)CCn1ccc2ccccc21
  . | 15
COC(=O)CNC(=O)N1CCn2cccc2C1Cc1ccccc1 (stereo not drawn)
  . | -2
O=C1OC(Nc2nccs2)c2ccccc21 (stereo not drawn)
  . | -16
Cc1ccc(C)c(-n2nnnc2SCC(=O)OC(C)c2nc3sc(C)c(C)c3c(=O)[nH]2)c1 (stereo not drawn)
  . | 26
CSc1ccccc1NC(=O)COC(=O)/C=C/c1ccc(F)cc1
  0.3 | 3
CNC(=O)c1ccsc1NC(=O)c1ccc(OC)c(OC)c1
  . | 19
Cc1nc(SCC(=O)O)[nH]c(=O)c1CCC(C)C
  -0.1 | -21
Nc1nnc(CC(=O)N2CCCCC2)o1
  -0.3 | 12
CC(NC(=O)Cc1ccc(F)cc1)C(c1cccs1)N1CCOCC1 (stereo not drawn)
  . | 13
CC(=O)OC(C(=O)N(Cc1ccccc1)c1ccccc1)c1ccccc1 (stereo not drawn)
  -1.4 | .
CC(OC(=O)c1ccc(OC(F)F)cc1)C(=O)NC1CC1 (stereo not drawn)
  . | 15
Cc1nc2sc3c(c2c(=O)o1)CCCCC3
  0.4 | .
CN(C)C(=O)COc1ncnc2ccccc12
  -7.5 | -3
O=C(CSc1nc(=O)n(Cc2ccccn2)c2c1CCC2)N1CCCCC1
  . | 8
Cn1cc(NC(=O)NCc2ccccn2)c2ccccc2c1=O
  . | -21
CSc1nc2c(cnn2-c2ccccc2)c(=O)n1N
  -7.0 | 7
CSc1nc2sc3c(c2c2nnc(SCC(=O)Nc4ccccc4)n12)CC(C)(C)OC3
  . | 7

Next section
Values run as follows: MgrA-DNA mod | S aureus helic
COC(=O)C1C(=O)OC(C)(C)C2CCC(C)CC12 (stereo not drawn)
  . | 6
CC(C)n1c(=S)[nH]c2ccccc21
  1.1 | .
CCCn1nc(NS(=O)(=O)c2ccccc2)c2cc3ccccc3nc21
  . | -18
Cc1ccc2cc(NC(=O)c3cc(C)n(C)n3)ccc2n1
  . | -10
C=CCNC(=O)c1ccc(S(=O)(=O)N2CCC(C)CC2)cc1
  . | -2
O=C(Cc1ccc(Cl)cc1Cl)NCc1cccnc1
  . | -11
Cc1cc(C=Nc2ccccc2)c(C)n1-c1ccccc1
  -4.0 | 2
O=C(CS(=O)(=O)Cc1ccccc1)Nc1ccc2c(c1)OCO2
  -2.9 | 14
C[N+]1(C/C=C2/COCO2)CCCCC1
  -0.8 | -12
CNC(=O)Cn1ncc2c(C)n(Cc3ccccc3)c(C)c2c1=O
  -0.9 | 12
COC(=O)c1sccc1-n1cc(C#N)c(=O)n(C)c1=O
  1.0 | .
O=C(O)c1ccnc(N2CCCC2)c1
  -7.4 | 4
CCN1C(=O)C2ON(c3ccc(Cl)cc3)C(c3ccccc3)C2C1=O (stereo not drawn)
  . | 14
Cc1nc2ccccc2nc1SCC(=O)NC1CCCC(C)C1C (stereo not drawn)
  -1.3 | -4
O=C(/C=C/c1ccco1)NC(=S)n1cnc2ccccc21
  -0.2 | 17
CCCCc1nc(Cl)c(C#N)c2c1COC(C)(C)C2
  1.1 | 1
NC[C@H]1O[C@H](O[C@H]2[C@H](O)[C@@H](O[C@H]3O[C@H](CO)[C@@H](O)[C@H](N)[C@H]3O)[C@H](N)C[C@@H]2N)[C@H](N)[C@@H](O)[C@@H]1O
  -0.9 | .
O=C(NC1=NCCS1)C12CC3CC(CC(C3)C1)C2
  -1.2 | 12
O=C(OCc1ncc(-c2ccccc2)o1)C1CC2CCCC(C1)C2=O (stereo not drawn)
  . | -7
COc1ccc(OCc2nnc3n2N=C(c2ccc(Br)cc2)CS3)cc1
  -0.5 | 13
COc1ccc(N2CCN(CN3C(=O)NC(c4ccccc4)(c4ccccc4)C3=O)CC2)cc1
  . | 17
O=C(CN1CCCC1)Nc1cccc(Cl)c1Cl
  1.4 | 3
O=C(NCCc1ccc(S(=O)(=O)N2CCCC2)cc1)c1cccc2ccccc12
  1.4 | -1
Nc1nc2ccc(C(=O)N3CCCCC3)cc2s1
  . | 2
CSc1n[nH]c(-c2ccncc2)n1
  -0.5 | -1
O=C1CC(c2ccccc2)c2cc(Cl)ccc2O1 (stereo not drawn)
  3.5 | 8
FC(F)(F)c1ccc(N2CCN(Cc3cn[nH]c3-c3ccccc3)CC2)nc1
  -0.8 | .
Cc1cccc(C(=O)OCCN2CCCCC2)c1
  . | 5
COc1ccc(S(N)(=O)=O)cc1OC
  0.6 | 2
Cc1ccsc1/C=c1/sc2nc(-c3cccs3)nn2c1=O
  . | -5
Cc1cccc(Nc2ccccc2C(=O)O)c1C
  1.3&3.4 | .
Cc1nc(N)ccc1I
  . | -3
O=C(NCC1CCCCC1)c1ccc2ncsc2c1
  . | -8
Cc1cccc2c3c([nH]c12)CCNC3
  -0.7 | 10
O=C(NC1CC1)c1cc(Cl)nc2ccccc12
  . | -2
O=c1nc(N2CCCCCC2)nc(N2CCCCCC2)[nH]1
  . | 15
N#Cc1ccccc1CSc1nc(N)cc(N)n1
  2.4 | 6
O=C1CCCC2=C1C(c1ccc(O)cc1)C1=C(CCCC1=O)N2
  . | 1
CCOC(=O)c1ccccc1NC(=O)CSc1ncnc2ccccc12
  . | -25
CC(C)(C)NS(=O)(=O)c1ccc(S(=O)(=O)N2CCCC2)cc1
  . | -7
CSc1ccccc1-n1nnnc1SCCSc1ccccc1-n1nnnc1SC
  -0.5 | 8
CC(C)Cn1c(SCC(=O)Nc2sccc2C#N)nnc1-c1ccccc1F
  . | 12
COC(=O)c1ccc(C(=S)N2CCCCC2)cc1
  1.4 | 5
Cn1sc(=O)c2cc(S(=O)(=O)NC3CC3)ccc21
  17 | .
Cc1cc2c(cc1S(=O)(=O)CCC(=O)N1CCCC1)OCC(=O)N2
  . | -23
CSc1n[nH]c(NC(=O)Nc2ccccc2)c1S(=O)(=O)c1ccc(Cl)cc1
  -0.9 | .
COC(=O)c1ccc(NC(=O)CSc2nc(=O)cc(N)n2-c2ccccc2)cc1
  0.3 | 7
Cc1nc(CSc2ncnc3sc4c(c23)CCC4)cs1
  0.3 | 2
O=C(c1n[nH]c2c1CCCC2)n1ccnc1
  9.6 | 9
S=C=Nc1ccc2c(c1)OCCO2
  . | -8

(cont.)
Values run as follows: MgrA-DNA mod | S aureus helic
Cc1cc(C(=O)COC(=O)/C=C/c2ccccc2)c(C)n1-c1nccs1
  . | -5
O=C(/C=C/c1ccc(Cl)cc1)C1(O)CCCCC1
  -1.3 | 11
Cc1ccc(S(=O)(=O)Nc2ccc(O)c(C(=O)O)c2)c(C)c1
  . | -13
CSC1=NC=C(C#N)C2=NC(c3ccc(Cl)cc3)NN12 (stereo not drawn)
  -0.6 | .
CC(C)/C=N/NC(=O)c1ccc2c(c1)NC(=O)C(C)(C)O2
  -0.6 | 7
Cc1cc(NC2=CC(=O)CCC2)n(-c2cc(C(F)(F)F)ccc2Cl)n1
  -1.4 | 3
CSc1ncc(C(=O)Nc2nc3ccccc3s2)cn1
  0.4 | 3
CCOC(=O)C1=C(SCc2ccccc2)NC(=O)C(C#N)C12CCCCC2 (stereo not drawn)
  -2.6 | -2
Nc1c2cnc(N3CCCC3)nc2nc(=O)n1-c1ccc(Cl)cc1
  0.5 | .
CCOC(=O)N1CCN(C(=O)CSc2nc3c(c(=O)n2Cc2ccccc2)SC(C)C3)CC1 (stereo not drawn)
  0.2 | 10

Three of these compounds, reformatted:
CSc1ncc(C(=O)Nc2nc3ccccc3s2)cn1
  MgrA-DNA mod: 0.4 | S aureus helic: 3
CCOC(=O)C1=C(SCc2ccccc2)NC(=O)C(C#N)C12CCCCC2 (stereo not drawn)
  MgrA-DNA mod: -2.6 | S aureus helic: -2
Nc1c2cnc(N3CCCC3)nc2nc(=O)n1-c1ccc(Cl)cc1
  MgrA-DNA mod: 0.5 | S aureus helic: .

The listing continues:
Values run as follows: MgrA-DNA mod | S aureus helic
CCC(NC(=O)Nc1ccccc1C(=O)OC)(C(F)(F)F)C(F)(F)F
  0.6 | 10
C=CCNC(=S)N1CCN(C2CCCCC2)CC1
  -1.6 | -3
CCc1nc2ccccc2c(=O)n1NC(=O)c1c(O)c2ccccc2n(CC)c1=O
  0.4 | -2
CC1CCN(CC(=O)Nc2ccccc2C#N)CC1
  -0.1 | 1
COC(=O)C1=C(N)Oc2c(OC)cc(Br)cc2C1C(C#N)C(=O)OC (stereo not drawn)
  2.5 | .
Cc1cc2ccccn2c1C(=O)c1cccs1
  0.0 | 9
O=c1ccc(-c2ccc(S(=O)(=O)N3CCCc4ccccc43)s2)n[nH]1
  . | -21
CCOC(=O)CN(C)C1=NS(=O)(=O)c2ccccc21
  -0.1 | 4
COc1ccc(C2C(=O)N(C3CCCCCC3)CC(=O)N2C2CCCCC2)cc1 (stereo not drawn)
  . | 0
O=C1CC(Cc2ccccc2)C(=O)N1c1ccncc1 (stereo not drawn)
  . | 24

Looked up by compound from the list above, six records:
Values run as follows: MgrA-DNA mod | S aureus helic
Cc1cc(NC2=CC(=O)CCC2)n(-c2cc(C(F)(F)F)ccc2Cl)n1
  -1.4 | 3
O=C(OCc1ncc(-c2ccccc2)o1)C1CC2CCCC(C1)C2=O (stereo not drawn)
  . | -7
CCOC(=O)C1=C(SCc2ccccc2)NC(=O)C(C#N)C12CCCCC2 (stereo not drawn)
  -2.6 | -2
N#Cc1ccccc1CSc1nc(N)cc(N)n1
  2.4 | 6
C=CCNC(=S)N1CCN(C2CCCCC2)CC1
  -1.6 | -3
O=C1CCCC2=C1C(c1ccc(O)cc1)C1=C(CCCC1=O)N2
  . | 1

Remaining list, next part:
Values run as follows: MgrA-DNA mod | S aureus helic
CCc1cccc(C)c1NC(=O)NC1CCN(c2ncc(C(F)(F)F)cc2Cl)CC1
  -2.7 | .
CCN(CC(=O)c1ccco1)C1CCCCC1
  . | 3
Cc1ccc(N2C(=O)CC(Sc3nc(C)cc(C(F)(F)F)c3C#N)C2=O)cc1 (stereo not drawn)
  -2.3 | .
N#CCN1CCN(c2ccc(C(F)(F)F)cn2)CC1
  -0.1 | .
O=c1c(-c2ccccn2)coc2cc(O)cc(O)c12
  . | 1
Cn1cnc2sc3c(c2c1=O)CCCC3
  3.2 | 5
CCO/C=C1/C(=O)NC(=O)c2ccccc21
  . | -9
Fc1ccc2[nH]c3nc(=S)[nH]nc3c2c1
  . | 17
O/N=C(/C(=N/O)c1ccccc1)c1ccccc1
  -0.6 | .
CCOC(=O)c1cc(C(=O)OCC)n(C)n1
  1.6 | -2
CNC(=O)CSc1nc2cc3c(cc2cc1C)OCCO3
  0.1 | 20
COc1cccc(-n2cc(C(=O)NC3CCCC3)c3ccccc3c2=O)c1
  -1.0 | 4
COc1ccc2c(c1)c1c(c(=O)n(-c3cc(Cl)ccc3C)c(=O)n1CC(N)=O)n2C
  . | 22
O=C(NC1CCCCC1)C1CCCN1C(=O)NCc1ccccc1 (stereo not drawn)
  -2.1 | 2
COc1cccc(C2CCCC/C2=N/O)c1 (stereo not drawn)
  3.3 | .
